From PubChem BioAssay
D2 ag – activates the human D2 dopamine receptor | P14416 | DiscoveRx PathHunter D2 beta-arrestin, luminescence, 90 min; 100% = 57 uM dopamine signal | activation, % (concentration not given with the values) | 360,000 compounds, 0.084% hits | AID 624465; in the data active = activation above about 40%; inconclusive = about 15% to 40%; inactive = below about 15%; further: the text of the record calls up to 30% inactive
Target sequence (P14416 whole entry, looked up): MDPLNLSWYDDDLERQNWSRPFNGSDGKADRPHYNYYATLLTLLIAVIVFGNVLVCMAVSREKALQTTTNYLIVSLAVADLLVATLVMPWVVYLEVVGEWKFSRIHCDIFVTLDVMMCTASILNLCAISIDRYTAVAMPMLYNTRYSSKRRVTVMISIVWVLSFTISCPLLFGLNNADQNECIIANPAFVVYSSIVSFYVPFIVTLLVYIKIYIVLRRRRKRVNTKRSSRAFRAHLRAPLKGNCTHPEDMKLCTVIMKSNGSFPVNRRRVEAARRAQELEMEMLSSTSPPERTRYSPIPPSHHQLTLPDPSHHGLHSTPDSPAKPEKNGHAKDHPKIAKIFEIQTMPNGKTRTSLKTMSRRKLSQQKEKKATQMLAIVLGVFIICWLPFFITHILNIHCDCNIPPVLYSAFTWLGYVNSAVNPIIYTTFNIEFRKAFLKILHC
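Agonist mode: compounds alone added to overnight-plated D2 PathHunter cells for 90 min at 37 C, with 57 uM final dopamine (EC100) defining full response. Beta-arrestin recruitment detected by chemiluminescent reagent, read after 1 h at ambient temperature.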
CtBP-E1A inh – blocks the CtBP interaction with E1A; activity change, % (no concentration beside the values); AlphaScreen GST-E1A/His-CtBP binding, 1536-well; hits give low values; control for the full effect not named in the record; 340,000 compounds, 0.49% hits; in the data active means activity change below about -65%; inconclusive means about -30% to -65%; inactive means above about -30%; further: on the % scale 0 is the no-effect control and ±100 the full control effect
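AlphaScreen with 125 nM GST-E1A and 125 nM His-CtBP (5X stocks) in Tris pH 8.0, 300 mM NaCl, BSA, Tween 20, TCEP. Compounds preincubated 2 h at 37 deg C, then glutathione donor/nickel acceptor beads added for 1 h at 37 deg C in dark.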
Six1-Eya2 blk – inhibitors of human Six1/Eya2 interaction. AlphaScreen GST-Six1/His-Eya2 binding, biochemical; hits give low values; control for the full effect not named in the record. activity change, % (concentration not given with the values). 360,000 compounds, 0.56% hits; in the data active = activity change below about -65%; inconclusive = about -30% to -65%; inactive = above about -30%; further: on the % scale 0 is the no-effect control and ±100 the full control effect
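Six1/Eya2 binding was read as AlphaScreen signal after compounds were pinned into GST-Six1 plus His-tagged Eya2 (5X stock 250/500 nM) in pH 8.0 Tris/NaCl/TCEP buffer, beads added, then incubated 1 h, 37 C, dark.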
PINK1 expr mod – modulators of PINK1 expression | AID 624263 | PINK1 immunofluorescence, high-content cytometry, 24 h | 410,000 compounds, 0.2% hits | Potency, µM (top dose mostly 76.6 µM), for the others: at the top dose activation (PINK1 increase), usual class: activators; active = well fitted activation curve with a large enough effect; inconclusive = small, poorly fitted or top-dose-only effect; inactive = flat fitted curve, though single readings scatter; cell line not stated here;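 further: potency means the concentration at half of the fitted maximal effect; % of control where 0% means no effect; nearly all actives have a fitted effect of over 65% in size; a mitochondrial uncoupler was the plate control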
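Cells are seeded, rested 12 hours, then given compound at five concentrations or DMSO for 24 hours. After fixation, blocking and antibody staining, PINK1 amount and mitochondrial localization are scored; CCCP serves as control.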
TRPML1 ag – agonists of human TRPML1 channel; Q9GZU1; TRPML1-expressing cells, Ca2+ dye fluorescence, FDSS; host cell line not named in the record; reference of the full effect not given here; activation, % (no concentration beside the values); 410,000 compounds, 0.12% hits; in the data active = activation above about 50%; inconclusive = about 30% to 50%; inactive = below about 30%; further: 0% is about no effect; the text of the record puts the active cut at 80%
Target sequence (Q9GZU1 whole entry, looked up): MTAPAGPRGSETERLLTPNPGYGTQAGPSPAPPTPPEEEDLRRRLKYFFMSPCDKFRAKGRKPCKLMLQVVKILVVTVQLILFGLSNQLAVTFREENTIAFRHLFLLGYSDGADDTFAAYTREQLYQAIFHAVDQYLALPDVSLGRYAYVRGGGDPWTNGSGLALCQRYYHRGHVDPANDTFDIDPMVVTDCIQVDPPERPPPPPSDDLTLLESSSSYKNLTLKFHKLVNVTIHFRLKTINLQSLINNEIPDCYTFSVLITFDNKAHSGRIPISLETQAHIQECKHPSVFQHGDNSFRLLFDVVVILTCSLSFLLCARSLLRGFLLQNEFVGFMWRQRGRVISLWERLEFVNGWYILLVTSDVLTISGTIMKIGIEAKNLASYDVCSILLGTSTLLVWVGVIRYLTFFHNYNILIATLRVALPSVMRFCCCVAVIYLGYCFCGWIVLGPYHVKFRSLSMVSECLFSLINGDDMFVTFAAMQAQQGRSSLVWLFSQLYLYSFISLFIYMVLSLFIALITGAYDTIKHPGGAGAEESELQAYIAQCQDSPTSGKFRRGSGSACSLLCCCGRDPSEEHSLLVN
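Tet-induced TRPML1-DL cells, 1,500 per well, cultured overnight, were loaded with a no-wash Ca2+ dye for 45–90 min. Calcium fluorescence was recorded on the FDSS for 110 s after compound addition, before the EC80 agonist (4 uM 54-4) was added.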
D2 PAM – human D2 receptor positive allosteric modulation. P14416. 360,000 compounds, 0.23% hits. DiscoveRx D2 beta-arrestin cells, luminescence, 90 min; 100% = 57 uM dopamine signal. potentiation, % (concentration not given with the values); active = potentiation of 50% or more; inconclusive = 30% to 50%; inactive = 30% or less;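 further: tested on top of an EC20 dose of dopamine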
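PathHunter beta-arrestin assay in DiscoveRx D2 cells. Compounds were added with an EC20 of dopamine (50 nM final) for 90 min at 37 deg C. Luminescence was read 1 h after detection reagent, with 57 uM dopamine as the EC100 control.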
An asterisk follows results filed as active; ? = inconclusive; / = no result given; & = joins results of further samples. Rows are unselected; about 1.3% have a hit in one of these screens.

SMILES	D2 ag	CtBP-E1A inh	Six1-Eya2 blk	PINK1 expr mod	TRPML1 ag	D2 PAM
CCC(=O)Nc1cccc(NC(=S)NC(=O)c2cccc(C)c2)c1	1.5	-8.4	-5.5	2.1%	3.0	0.0
O=C(Nc1ccccc1)N1CCN(CCc2ccccc2)CC1	-1.3	-0.9	0.0	1.8%	0.1	-13.6
Cn1c(Oc2cccnc2CN2CCCC2)nc2cc(-c3cccc(C(F)(F)F)c3)sc2c1=O	3.6	-1.6	-6.4	1.8%	-0.8	-3.7
CC(=O)c1ccccc1NC(=O)CC1(CC(=O)O)CCCCC1	-1.3	10.0	-24.6	0.3%	-0.5	1.0
NC(=O)c1cc(Sc2ccccc2)nc2ccccc12	3.9	-12.6	-4.8	-3.4%	1.7	-1.1
COC(=O)C[C@H]1C[C@@H]2c3cc(NS(=O)(=O)c4cccc(OC)c4)ccc3O[C@@H]2[C@@H](CO)O1	-7.7	-2.0	0.1	1.3%	-0.1	-1.4
O=C(COc1ccc2ccc(=O)oc2c1)Nc1cccc(S(=O)(=O)N2CCCCC2)c1	5.4	-14.3	-4.9	4.8%	1.8	-2.5
CN(C)S(=O)(=O)c1cc(NC(=O)COC(=O)c2ccc3c(c2)OCO3)ccc1Cl	-0.3	-14.3	-7.6	2.3%	1.0	-12.8
COc1cccc(C(=O)N2CCN=C2SC)c1	0.9	-9.3	5.0	0.7%	-1.1	0.2
Cc1nc2ccccc2c2oc(C(=O)N3CC(C)CC(C)C3)cc12 (configuration not stated)	-0.4	/	-0.8	1.8%	0.1	-2.6
O=c1[nH]c(C2CCN(S(=O)(=O)c3ccccc3)CC2)nc2c1nnn2Cc1c(F)cccc1Cl	5.5	0.0	0.9	0.9%	2.9	3.1
CC1=C(O)C(=O)C(c2c(C)cc(C)c(Br)c2C)=C(O)C1=O	-5.9	-11.3	-22.9	2.6%	-0.5	-10.5
Cc1cc(NC(=O)CSc2nc(N)c(NC(=O)c3ccc(F)c(F)c3)c(=O)[nH]2)no1	-3.9	5.0	-11.7	6.4%	0.1	-10.4
CCN(CC)S(=O)(=O)c1ccc(OC)c(NC(=O)CSCc2c(C)noc2C)c1	-2.5	-8.6	-8.6	2.1%	-0.9	-9.0
Cc1ccc(NC(=O)[C@H](C)NC(=O)C2CCN(C(=O)[C@@H](N)C(C)C)CC2)cc1	-4.6	/	16.2	-1.0%	-0.2	-4.2
COc1ccc(-c2cnc(C(O)c3ccc(-c4ccccc4)cc3)[nH]2)cc1 (configuration not stated)	1.8	-15.5	-19.5	1.7%	-0.2	-12.0
CSCCC(NC(=O)c1ccco1)C(=O)OC(C)C(=O)NC(=O)NC1CCCCC1 (configuration not stated)	-2.5	-2.0	0.0	-2.5%	?	-2.7
O=C1NC(=O)/C(=C\c2ccccc2OCc2cccc([N+](=O)[O-])c2)N1	-1.9	/	-11.3	6.1%	5.0	-2.9
O=C(NCCc1ccc(Cl)cc1)c1ccc(NC2=NC3CS(=O)(=O)CC3S2)cc1 (configuration not stated)	-7.1	1.3	-0.9	5.5%	-0.2	-2.2
Cc1nc(C(=O)NCCO)cc2c1[nH]c1ccccc12	2.2	/	1.7	-0.4%	0.1	-6.5
Cc1cc(NC(=O)CCCC(=O)OCC(F)(F)C(F)F)cc(C)c1C(=O)O	-2.2	7.0	9.4	1.0%	-0.7	-8.5
CCN1CCN(c2ccc(S(=O)(=O)N3CCOCC3)cc2NC(=O)/C=C/c2ccc(C)cc2)CC1	-1.3	2.4	4.2	-0.8%	0.5	-0.8
CCOC(=O)N1CCN(C(=O)C2CCN(S(=O)(=O)c3ccc(Cl)cc3)CC2)CC1	0.9	-0.4	3.6	/	-0.3	-1.5
CN1CCCC(OC(=O)c2cc(Cl)ccc2Cl)C1 (configuration not stated)	-9.2	-1.1	-9.0	0.4%	-0.4	-21.7
CCOc1cc(/C=N/Nc2nc3ccccc3[nH]2)cc(Br)c1OCC(=O)N(C)C	-1.7	-17.3	?	-1.4%	-1.5	-17.6

Next section.
SMILES	D2 ag	CtBP-E1A inh	Six1-Eya2 blk	PINK1 expr mod	TRPML1 ag	D2 PAM
COc1ccc(-c2cc(=Nc3ccc(C(=O)O)cc3)c3cc(C)ccc3o2)cc1	-3.7	-6.8	-8.8	0.0%	0.5	-13.6
CCC(C)NC(=O)CCn1c(-c2ccc(F)cc2)cc(C(C)=O)c1C (configuration not stated)	1.2	/	-3.9	-1.5%	0.2	-6.7
COC(=O)C(CCSC)NC(=O)CNC(=O)C1CCCCC1 (configuration not stated)	-2.3	6.8	2.4	1.7%	0.3	-18.7
CCCc1cc(-c2nc(N)ncc2-c2csc(C)n2)c(O)cc1OC	-3.9	/	-16.2	1.4%	1.2	-5.7
NC(N)=N/N=C/c1cc([N+](=O)[O-])ccc1O	-3.6	-29.1	-19.5	2.1%	1.0	-17.8
CC1CCN(C(=O)COC(=O)c2cccs2)CC1	-2.3	-0.4	-2.8	0.6%	0.1	-18.1
CN(C)/C=C1\C(=O)NN=C1c1ccccc1	0.4	16.7	9.6	1.8%	-0.2	-1.2
O=C(Cn1ncc2c3ccccc3n(Cc3cccc(Cl)c3)c2c1=O)NCC1CCCO1 (configuration not stated)	-3.0	0.0	2.5	4.0%	1.6	-8.8
Nc1cc(S(=O)(=O)N2CCOCC2)ccc1Oc1ccc(F)cc1	6.3	6.4	-1.8	0.5%	0.2	-5.3
COc1ccc(NC(=O)CN(C)C(=O)c2ccc3ccccc3c2)cc1	-3.8	3.1	0.0	0.1%	2.1	-30.2
COc1ccc(NC(=S)NC(=O)c2ccc(Br)o2)cc1	-2.2	/	2.9	1.7%	0.1	-8.1
[O-]C(=C(C(=S)Nc1cccc2ccccc12)[n+]1cccc(CO)c1)c1ccc(Cl)s1	2.2	3.0	-11.1	5.1%	1.2	2.4
Cc1ccc(Oc2nc3c(C)cccn3c(=O)c2/C=C(\C#N)C(N)=O)cc1	0.2	7.4	-5.3	6.1%	0.2	10.4
COc1cc(NC(=O)c2cnc(NCc3ccccc3)nc2C)cc(OC)c1OC	5.7	2.4	4.3	13.5%	0.8	10.2
Cc1cccc(NC(=O)N2C3CCCC2CC(NC(=O)C(C)(C)C)C3)c1 (configuration not stated)	-4.3	3.7	-2.7	3.1%	-0.6	-1.1
COc1cc(OC)cc(N(C(=O)c2ccco2)C(C(=O)NC2CCCC2)c2ccc(N(C)C)cc2)c1 (configuration not stated)	-2.1	-12.5	-25.1	-1.3%	0.2	10.3
CCOC(=O)c1nn(C)c2[nH]c(=O)n(C)c(=O)c12	-2.6	0.8	1.1	0.8%	0.7	0.8
COc1cccc(-c2nn(-c3ccccc3)cc2/C=C(/NC(=O)c2ccccc2)C(=O)O)c1	0.6	-4.6	-0.5	-2.1%	2.0	-0.1
N#Cc1ccccc1S(=O)(=O)N1CCN(c2nc(-c3ccccc3)nc3ccccc23)CC1	-3.7	3.4	-2.6	0.7%&3.5%	-0.2&-0.1	-4.1
COC(=O)c1cnn(-c2nc(OC)cc(OC)n2)c1C	-3.7	20.0	1.0	3.0%	-1.3	-0.1
O=C(NCCCN1CCOCC1)c1ccc(S(=O)(=O)Nc2cccc(C(F)(F)F)c2)cc1	-1.4	4.5	-2.8	2.6%	0.2	-1.6
O=C(O)c1nccnc1C(=O)Nc1ccc(S(=O)(=O)N2CCOCC2)cc1	-7.0	2.2	-7.8	0.8%	-0.7	-4.3
O=C(CSc1nnc2ccccn12)Nc1ccccc1C(=O)NC1CC1	-3.3	4.5	1.1	-1.4%	-0.6	-16.2
Cc1ccc2oc(=O)cc(CN3CCCCC3)c2c1	1.2	5.8	2.4	3.1%	-0.9	-5.2
O=C(COC(=O)c1ccc(-n2cnnn2)cc1)Nc1cc(Cl)ccc1F	-2.0	/	2.3	0.9%	-1.0	1.9

The closing 5 compounds of the part before come first, to join the parts.
SMILES	D2 ag	CtBP-E1A inh	Six1-Eya2 blk	PINK1 expr mod	TRPML1 ag	D2 PAM
O=C(NCCCN1CCOCC1)c1ccc(S(=O)(=O)Nc2cccc(C(F)(F)F)c2)cc1	-1.4	4.5	-2.8	2.6%	0.2	-1.6
O=C(O)c1nccnc1C(=O)Nc1ccc(S(=O)(=O)N2CCOCC2)cc1	-7.0	2.2	-7.8	0.8%	-0.7	-4.3
O=C(CSc1nnc2ccccn12)Nc1ccccc1C(=O)NC1CC1	-3.3	4.5	1.1	-1.4%	-0.6	-16.2
Cc1ccc2oc(=O)cc(CN3CCCCC3)c2c1	1.2	5.8	2.4	3.1%	-0.9	-5.2
O=C(COC(=O)c1ccc(-n2cnnn2)cc1)Nc1cc(Cl)ccc1F	-2.0	/	2.3	0.9%	-1.0	1.9
CCC[C@@H](CN1CCC[C@H]1CN1C(N)=NC[C@H]1C(C)C)N1C[C@@H]([C@H](C)CC)N(CCCC2CCCC2)C1=N	-2.0	-21.0	0.1	0.0%	0.0	/
N=c1n(Cc2ccccc2)c2ccccc2n1CC(O)COc1ccc(Cl)cc1Cl (configuration not stated)	-3.0	-8.0	0.9	-1.7%	0.4	-8.6
CC(=O)c1ccc(NS(=O)(=O)c2c(C)cc(C)cc2C)cc1	3.3	-9.6	-10.1	0.3%	-0.4	0.4
COC(=O)c1c(S(=O)(=O)NCc2ccccc2)sc(C(=O)O)c1C	-1.0	-2.7	6.3	0.6%	0.6	-15.5
O=C(O)c1ccccc1C(=O)Nc1ccc(Br)c2cccnc12	-0.1	6.7	1.3	-1.2%&0.1%	0.2&2.5	-0.7
Cn1cccc1-c1nc2ccc(NC(=O)c3ccccc3)cc2[nH]1	-0.7	-25.4	-29.3	3.3%	-0.3	5.0
O=C(O)CSc1ncnc2sc(-c3ccccc3)cc12	-3.8	0.0	-7.1	1.0%	-0.9	12.2
CCC(C)NC(=O)C1=C(C)C(=O)OC12CCC(C)CC2 (configuration not stated)	-2.7	3.1	2.5	1.0%	-0.4	-1.9
CC(C)CN(C(=O)CCNC(=O)c1ccccc1Cl)C1CCS(=O)(=O)C1 (configuration not stated)	-3.7	0.0	-0.3	-0.8%	2.8	-1.8
N#CC1C(=N)Cc2ccccc2-c2ccccc21 (configuration not stated)	1.5	0.8	-8.3	6.5%	3.5	1.9
CC12CCC(C(=O)NNc3ccc([N+](=O)[O-])cc3)(CC1=O)C2(C)C (configuration not stated)	2.5	/	11.0	-0.4%	0.3	-8.5
CC(=O)c1ccc(S(=O)(=O)N2CCn3cccc3C2C)cc1 (configuration not stated)	10.3	-2.5	-2.8	0.0%	-0.3	-0.3
O=C(O)COc1ccc(Br)cc1/C=N\Nc1ccccn1	?	-2.2	0.1	3.4%	0.0	-2.8
Cn1c(=O)oc2cc(S(=O)(=O)N3CCCCC3)ccc21	2.4	5.6	4.9	-1.3%	1.8	-7.0
O=C(CN1CCN(S(=O)(=O)c2ccccc2)CC1)Nc1ccc(Cl)c(Cl)c1	1.4	-1.8	7.7	/	0.6	-21.6
CCc1nc2c(OCc3ccc(C(F)(F)F)cc3)cccn2c1N(C)C(C)=O	3.4	-10.4	3.2	1.2%	20.6	3.4
Cc1cccc(S(=O)(=O)NC(=O)C2(C)CCN2C(=O)CCC2CCCC2)c1 (configuration not stated)	-1.4	9.4	11.0	-1.6%	0.1	0.9
O=C1CCCN1CCCN=c1c([N+](=O)[O-])nn(-c2ccc(Cl)cc2)n1O	9.2	1.7	0.9	-1.6%	-0.6	51.8*
